Menin-MLL FL inh: displaces fluorescein MLL peptide from human menin; Fluorescence polarization, fluorescein-MLL peptide displacement from menin; FP activity change, % at 61.4 µM; 290,000 tested, under 10 active; AID 1766; inconclusive = falling polarisation curve, or a change in total fluorescence; inactive = total fluorescence flat and polarisation flat or rising; no compound was filed as active; the % refers to the polarisation; negative = inhibition;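 also: % of control where 0% means no effect; inhibitors lower the polarisation; unlabelled MLL peptide was the positive control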
D2 ag: human D2 receptor agonism in beta-arrestin assay; activation, % (no concentration beside the values); hit rate 0.084% among 360,000; DiscoveRx PathHunter D2 beta-arrestin, luminescence, 90 min; 100% = 57 uM dopamine signal; P14416; in the data active = activation above about 40%; inconclusive = about 15% to 40%; inactive = below about 15%; also: compound concentration not given in the record; the text of the record calls up to 30% inactive
Target sequence (P14416 whole entry, looked up): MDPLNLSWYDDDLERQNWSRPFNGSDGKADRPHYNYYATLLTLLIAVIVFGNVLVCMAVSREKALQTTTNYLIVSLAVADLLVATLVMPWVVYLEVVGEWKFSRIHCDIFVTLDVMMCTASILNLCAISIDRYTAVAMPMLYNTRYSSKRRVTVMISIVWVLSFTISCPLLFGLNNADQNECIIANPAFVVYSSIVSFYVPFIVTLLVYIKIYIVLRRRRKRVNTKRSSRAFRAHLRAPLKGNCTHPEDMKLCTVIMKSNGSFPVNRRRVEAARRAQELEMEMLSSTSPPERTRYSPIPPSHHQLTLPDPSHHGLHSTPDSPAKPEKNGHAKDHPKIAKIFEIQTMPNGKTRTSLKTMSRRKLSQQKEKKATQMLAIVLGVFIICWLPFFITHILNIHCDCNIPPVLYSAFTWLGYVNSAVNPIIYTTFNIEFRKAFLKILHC
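DiscoveRx PathHunter D2 beta-arrestin cells (2,100/well) attached overnight, then compound-stimulated 90 min at 37 C in HBSS/10 mM HEPES/0.1% Tween-20 buffer; beta-galactosidase complementation read by luminescence after 1 h at ambient temperature. Dopamine 57 uM final (EC100) as control.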
gsp antag: gsp mutant antagonism. gsp-mutant cells, cAMP HTRF, 30 min; control for the full effect not named in the record. Potency, µM (doses to about 76.9 µM), without a hit: at the highest dose activity change, negative = inhibition, most hits filed as inhibitors. hit rate 0.4% among 340,000. AID 624288; active = falling curve of any shape with a large fitted effect; inconclusive = falling curve, mostly with a smaller effect; inactive = flat or rising curve; cell line not stated here;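 also: intracellular cAMP measured with PDE inhibitor Ro 20-1724 present during compound exposure; potency is read from the fitted curve at half-maximal effect; % is scaled to controls: 0 for no effect and ±100 for the full control effect; nearly all actives have a fitted effect of over 65% in size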
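Measurement of cellular cAMP by homogeneous time-resolved fluorescence following a 30 min compound exposure at 37C. The PDE inhibitor […] was present throughout; the assay buffer was DPBS with 0.05% BSA and 0.005% Tween 20.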
Sfp inh: Sfp phosphopantetheinyl transferase inhibition | Potency, µM, inactives show max response, negative = inhibition, hits mostly inhibitors | AID 1490 | Biochemical Sfp PPTase activity, qHTS | hit rate 3.5% among 310,000 | Q9F4F7; active = well fitted inhibition curve with a large enough effect; inconclusive = small, poorly fitted or top-dose-only effect, or another doubt; inactive = no such curve, though single readings can be large or run the other way;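 also: the enzyme is Sfp with the accession as filed and its product quenches rhodamine fluorescence; potency is read from the fitted curve at half-maximal effect; 0% = enzyme reaction without inhibitor and -100% = no enzyme wells; top concentration of the series not given in the record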
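Compounds were incubated with enzyme (final 15 nM) for 15 min at room temperature before substrate addition started the reaction. Fluorescence at 525 nm excitation, 598 nm emission was recorded immediately and after 30 minutes.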
gsp agonist: gsp mutant agonism. Potency, µM (top dose mostly 76.9 µM), for the others: at the top dose activation (cAMP increase), hits mostly activators. gsp mutant cells, cAMP HTRF, 30 min; control for the full effect not named in the record. hit rate 0.13% among 340,000; active = well fitted activation curve with a large enough effect; inconclusive = small, poorly fitted or top-dose-only effect, or another doubt; inactive = no such curve, though single readings can be large or run the other way; cell line not stated here;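 also: phosphodiesterase inhibitor Ro 20-1724 added with compounds to block cAMP breakdown; potency is read from the fitted curve at half-maximal effect; nearly all actives have a fitted effect of over 60% in size; about a fifth of the inactives were tested at one dose only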
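Cells stably selected in G418 were plated at 2000/well, grown 16-24 hr, then given compounds in DMSO with the PDE inhibitor […] (300 uM solution added) for 30 min at 37C; cAMP was read by HTRF.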
PINK1 modulator: PINK1 expression modulation | hit rate 0.2% among 410,000 | PINK1 immunofluorescence, high-content cytometry, 24 h | Potency, µM (series often up to 76.6 µM), without a hit: at the top dose activation (PINK1 increase), most hits filed as activators | AID 624263; active = well fitted activation curve with a large enough effect; inconclusive = small, poorly fitted or top-dose-only effect; inactive = flat fitted curve, though single readings scatter; cell line not stated here;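 also: potency is read from the fitted curve at half-maximal effect; % of control where 0% means no effect; nearly all actives have a fitted effect of over 65% in size; a mitochondrial uncoupler was the plate control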
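PINK1 protein level read as immunofluorescence by microplate cytometer in a fixed, stained stable cell line after 24 h exposure to five compound concentrations, with CCCP as control.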
ClpP mod: qHTS Assay for Activators of ClpP; ATP-dependent Clp protease proteolytic subunit (Bacillus subtilis (strain 168)), P80244; purified B. subtilis ClpP, FRET peptide cleavage, 20 min; Potency, µM (series often up to 57.5 µM), without a hit: at the highest dose activity change, negative = active; hit rate 1.9% among 340,000; AID 651965, 2013; active = well fitted falling curve with a large enough effect; inconclusive = small, poorly fitted or top-dose-only effect; inactive = no such curve, though single readings can be large or run the other way; also: potency is read from the fitted curve at half-maximal effect; the source files actives as falling curves though it sought activators and does not explain the sign; nearly all actives have a fitted effect of over 65% in size; many hits overshoot -100%
Target sequence (P80244 whole entry, looked up): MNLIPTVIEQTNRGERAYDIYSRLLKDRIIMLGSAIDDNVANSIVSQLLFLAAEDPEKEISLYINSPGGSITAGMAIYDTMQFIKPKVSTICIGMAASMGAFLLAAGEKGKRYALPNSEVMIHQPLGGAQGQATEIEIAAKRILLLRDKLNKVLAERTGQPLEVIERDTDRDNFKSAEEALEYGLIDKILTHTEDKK
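FRET quenching reversal measured ClpP activation: 10 microg/mL B. subtilis ClpP at pH 8 with the FRET-FV decapeptide, read at 430 nm after 320 nm excitation. The 20-min minus 0-min signal was scaled between DMSO/no-enzyme wells and ADEP (5.8 microM final).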
Numbers without * were called inactive; ? = inconclusive; · = not tested or not shown; & = joins results of further samples; ! = a repeat was not active; [ ] = another dose, or the depositor's remark.

| smiles | Menin-MLL FL inh | D2 ag | gsp antag | Sfp inh | gsp agonist | PINK1 modulator | ClpP mod |
| --- | --- | --- | --- | --- | --- | --- | --- |
| CN1CCC(N2CC3CC(C2)c2cccc(=O)n2C3)CC1 (configuration not stated) | 3.1 | -1.7 | 9% | 10% | -3% | 2.8%[38.3 µM] | -4.9% |
| CCn1c(O)c(C=Nc2ccc(S(N)(=O)=O)cc2)c(=O)n(CC)c1=S | · | -1.4 | -7% | ? | 8% | 1.7% | 1.1% |
| Cc1ccc(N(C)C(=O)Oc2ccc(C(=O)c3ccc(Cl)cc3)cc2)cc1 | 1.3 | -5.9 | 17% | 7% | 0% | 4.1% | 0.1% |
| O=C1NC(=O)C2(Cc3ccccc3N3CCCC32)C(=O)N1c1cccc(Cl)c1 (configuration not stated) | 9.5 | -2.7 | -10% | -11% | ? | 0.6% | -12% |
| Clc1ccc(C2N3CCCN23)c(Cl)c1 (configuration not stated) | 6.4 | -4.4 | 8% | 11% | -1% | 2.4% | 2.0% |
| CCOC(=O)[C@]12Cc3cc4c(cc3[C@H]1N(Cc1ccccc1)C(=O)c1ccccc12)OCO4 | · | -1.6 | -21% | · | · | -0.3% | -3.7%&-1.0% |
| O=C(c1cccc2ccccc12)C1CCCN(C2CCC2)C1 (configuration not stated) | 2.4 | -2.2 | 15% | -7% | 7%[15.4 µM] | 2.8% | · |
| O=C1c2cccc(N3CCNCC3)c2C2CCCCN12 (configuration not stated) | · | -3.4 | · | · | · | -0.6% | 4.8% |
| CC(NCc1ccc(Cl)cc1)C(O)c1ccccc1 (configuration not stated) | 1.9 | -0.4 | 19% | 0% | -41%[inhibitor] | -4.6%[38.3 µM] | -1.5% |
| CCCC(C)n1[nH]c(=O)c2c1NC(=O)CSC2c1ccc(OC)cc1 (configuration not stated) | 0.6 | -6.4 | -7% | 9% | -32% | 3.3% | -4.7% |
| Cc1cccc(-n2c(O)c(C=NC34CN5CN(CN(C5)C3)C4)c(=O)[nH]c2=O)c1 | ? | -2.9 | 9% | 10% | -2%[15.4 µM] | 0.3% | · |
| COC(=O)c1ccc(-n2c(C)nc3ccccc3c2=O)cc1 | 1.0 | -2.1 | 6% | 18% | -46%[inhibitor] | 3.7% | -2.7% |
| C[C@@H]1O[C@@H](O[C@H]2C[C@@H](O)[C@]3(CO)[C@H]4[C@H](O)C[C@]5(C)[C@@H](C6COC(=O)C6)CC[C@]5(O)[C@@H]4CC[C@]3(O)C2)[C@H](O)[C@H](O)[C@H]1O (some centres not stated) | -4.5 | -2.2 | 5% | 18% | · | -0.7% | -0.4% |
| CCc1cc2c(s1)N(CC(=O)OC)C(=O)CN=C2c1ccccc1OC | 5.1 | -2.7 | -6% | 21% | 0% | 0.0% | · |
| Cc1ccccc1-n1c(-c2ccc([N+](=O)[O-])cc2)nc2ccccc2c1=O | -1.0 | 4.6 | -13% | 2% | -3%[15.4 µM] | 2.2% | · |
| O=C(Nc1ccccc1F)OC1CN2CCC1CC2 (configuration not stated) | 1.6 | -5.9 | 5% | -20% | -14% | 0.5% | · |
| COc1cc(/C=N/NP(=S)(c2ccccc2)c2ccccc2)ccc1O | 4.7 | -2.4 | -10% | -24% | -8% | -0.3% | -0.5% |
| CN1C(=O)C(Cc2cccs2)C(=O)N(C)C1=O | -1.4 | 0.9 | -9% | -30% | -7% | · | -0.6% |
| CCOC(C(=O)OCCCN(CC)CC)(c1ccccc1)c1ccccc1 | 4.1 | -2.7 | 0% | 2% | 22% | -1.6% | -8.6% |
| COC(=O)c1cc2c(s1)=NC=NP=2(N1CCOCC1)N1CCOCC1 | -1.0 | -4.4&-0.7 | -12%&-4% | -13% | -38%&1%[inhibitor] | -4.7% | 28µM*! |
| O=S(=O)(NC1CN2CCC1CC2)c1ccc(Cl)cc1 (configuration not stated) | 0.9 | -4.3 | 5% | 8% | 9%[15.4 µM] | 0.4% | · |
| Cc1nc2ccccc2c(=O)n1-c1cc([N+](=O)[O-])cc([N+](=O)[O-])c1 | -0.8 | 12 | -1% | 19% | -3% | 0.7% | 0.1% |
| Cc1c(N=Nc2c(O)n(C)c(=O)n(C)c2=O)c(=O)n(-c2ccccc2)n1C | · | -2.1 | -6% | -28% | 26% | -0.6% | -1.3% |
| Cc1ccc([C@H]2C[C@H](n3cc(C4CC4)nn3)[C@@H](O)CN2Cc2cccs2)cc1 | · | 5.6 | · | · | -6% | 19% | -0.9% |
| C[n+]1cccc(C(=O)NCC2CCCO2)c1 (configuration not stated) | 5.5 | -3.1 | -7% | -2% | 5% | 2.6% | -15% |
| CCCCC1(CCC)C(=O)NC(=S)NC1=O | · | -0.7 | 8% | · | 15% | 1.1% | · |
| CCOC(=O)c1cccc(C2=C(CNC(=O)c3ccc([N+](=O)[O-])cc3)[C@H]3CC[C@@H](C2)N3Cc2ccccc2)c1 | · | -0.9 | · | · | 9% | 8.7% | -2.7% |
| CS(=O)(=O)CCN1CC2CCCC(C2)C1 | · | -2.0 | 10% | · | 1% | -0.1% | 2.7% |
| Cc1ccc(Cl)cc1N1CCN(C(=O)c2cn(C)c(=O)c3c2c2ccccc2n3C)CC1 | -0.1 | -2.1 | -25% | 10% | -11% | 9.8%[38.3 µM] | 28µM* |
| CN1/C(=C\C=C2C(=O)NC(=O)NC2=O)C(C)(C)c2ccccc21 | ? | -3.7 | 9% | 10% | 5% | 0.0% | -0.2% |
| Cc1cc(C=O)c(C)n1CC1CCCO1 (configuration not stated) | 4.1 | -1.4 | 16% | 23% | 10% | -2.0% | -1.1% |
| CN(C)P1(N(C)C)=Nc2c(c(N)nn2C)C(c2ccccc2)=N1 | 0.7 | 0.7&1.4 | 9%&3% | -2% | 10%&-3% | 0.1% | -1.2% |
| CC(C)CN1CC2(CCN(C(=O)c3ccncc3)CC2)C1 | 4.7 | · | · | 12% | · | -0.5% | · |
| COc1ccc(CCN)cc1O | -2.2 | 4.1 | -5% | 29% | · | 1.2% | -0.4% |
| COC(=O)C1=C(c2ccc(S(C)(=O)=O)cc2)C[C@@H]2CC[C@H]1N2C(=O)NCCNC(C)=O | · | -1.8 | 10% | · | 5% | -0.7% | -0.7% |
| C[C@]12CCC(=O)C=C1C=C[C@@H]1[C@@H]2CC[C@@]2(C)[C@H]1CC[C@@]2(O)CCC(=O)O | · | 1.9 | -14% | · | · | -0.2% | -1.4% |
| CN(C)C1=NC(N(C)C)=NP(N(C)C)(N(C)C)=N1 | 3.1 | -1.2 | 9% | 21% | 1% | -2.4% | 1.8% |
| O=C(NCC1=C(c2ccc3ccccc3c2)C[C@@H]2CC[C@H]1N2Cc1ccco1)c1cccnc1 | · | -11 | · | · | -75%[inhibitor] | -0.4% | -1.5% |
| Nc1ccc(S(=O)(=O)N2CCCCC2c2cccnc2)cc1 (configuration not stated) | 3.8 | -3.8 | 9% | -7% | -8% | -0.3% | 1.0% |
| CC(=O)[C@@]1(O)CCC2C3CC=C4C[C@@H](O)CC[C@]4(C)C3CC[C@@]21C (some centres not stated) | · | -0.5 | 8% | · | 2%[15.4 µM] | -0.6% | -7.2% |
| CCCC1(CC(C)C)C(=O)NC(=S)NC1=O | · | 1.4 | -9% | · | 11% | -4.5% | 28µM* |
| Cc1c(P(=S)(c2ccccc2)c2ccccc2)[n+]2ccccc2n1C | -6.1 | -6.5 | -2% | 7% | 15% | -0.5%&1.0% | -0.5% |
| CC(C)(C)c1nc(N2CCN(C(=O)c3ccco3)CC2)c2nnn(Cc3ccccc3Cl)c2n1 | 4.6 | -6.2 | -9% | ? | 3% | 5.7% | -23% |
| CCC(=NCCCN(CC)CC)c1c(O)n(-c2ccccc2)c(=O)[nH]c1=O | -0.9 | -0.8 | 10% | 10% | -28% | 0.4% | 0.8% |
| Cc1cc(C=C2C(=O)N(C)C(=S)N(C)C2=O)c(C)n1-c1ccncc1 | ? | -2.2 | -31% | 40µM* | -158%[inhibitor] | 2.8% | 0.7% |
| COC(=O)C1=C(c2cccc(OC)c2OC)C[C@@H]2CC[C@H]1N2C(=O)NCc1cccc2ccccc12 | · | 0.3 | -3% | · | ? | 1.1% | -4.5% |
| CC1OC(OC2CC(O)C3(CO)C4C(O)CC5(C)C(C6=CC(=O)OC6)CCC5(O)C4CCC3(O)C2)C(O)C(O)C1O (configuration not stated) | · | 1.6 | 2% | · | ? | -1.1% | 1.2% |
| C[C@]1(O)CC[C@H]2[C@@H]3CCC4=CC(=O)CC[C@]4(C)[C@@]3(F)[C@@H](O)C[C@@]21C | · | 2.9 | -2% | · | · | 0.9% | 0.7% |
| OC(CN1CCCCC1)c1c[nH]c2ccccc12 (configuration not stated) | -4.2 | 0.9 | 9% | 8% | 24% | -2.1% | -5.3% |
| Cc1ccc(NC(=O)[C@@H](NC(=O)N2C[C@H]3C[C@@H](C2)c2cccc(=O)n2C3)C(C)C)cc1 | -0.4 | -6.0 | 9% | 3% | · | 0.2% | -1.9% |
| O=S(=O)(c1ccccc1)N1CC1c1ccccc1 (configuration not stated) | -1.3 | -5.3 | -13% | -10% | -62%[inhibitor] | 0.2% | 1.4% |
| O=Cc1cn(Cc2ccccc2[N+](=O)[O-])c2ccccc12 | 0.9 | 1.3 | -14% | -12% | 2%[15.4 µM] | 0.4% | · |
| Cc1cc(S(=O)(=O)NCc2ccccc2)ccc1OCC(=O)N1CCN(C)CC1 | -1.2 | 2.4 | 7% | 11% | -26% | -5.3%[38.3 µM] | -2.0% |
| CC(C)C[C@H]1C(=O)N2CCC[C@H]2[C@]2(O)O[C@](NC(=O)C3C=C4c5cccc6[nH]c(Br)c(c56)C[C@H]4N(C)C3)(C(C)C)C(=O)N12 (some centres not stated) | · | 52* | ? | · | · | 2.3% | -15% |
| CC(=O)C1CCC2C3C(N4CC4)CC4=CC(=O)CCC4(C)C3CCC12C (configuration not stated) | · | -0.5 | -4% | · | -13% | -1.2% | -4.2% |
| O=C1NC(=O)C(CCc2ccncc2)(Cc2ccc([N+](=O)[O-])cc2)C(=O)N1 | -1.2 | -1.9 | 21% | -1% | -23% | 2.3% | 3.4% |

Not all compounds are listed; the hit share may differ from the screen's.
